High-throughput results deposited in PubChem BioAssay by Broad Institute.
Vaccinia inh – blocks a specific stage of Vaccinia orthopoxvirus infection. 89,000 compounds, 0.01% hits. Vaccinia-infected cells, mCherry/Venus stage reporter fluorescence; active compounds read low; some inactives read as strong as hits. AID 1053133. activity change (mCherry), % (concentration not given with the values);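 active = mCherry past -33% and 40 or more points under the early reporter, replicates agreeing; inconclusive = past -33% without that gap or agreement; tested in A549 cells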;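 also: scaled between vehicle wells and reference inhibitor wells; 23 nL library stock went into each well; one replicate is shown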
Vaccinia inh Venus – recorded beside Vaccinia inh, whose call it bears; activity change (Venus), %; measured here: Venus reporter, other viral stage;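 negative = less Venus signal; first of two replicates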
Numbers without * were called inactive; ? = inconclusive; / = not tested or not shown.

The opening 4 compounds, ahead of the listing:
SMILES	Vaccinia inh	Vaccinia inh Venus
Cc1cccc(S(=O)(=O)N2CC[C@@H]3[C@H](CO)Nc4ccc(C#Cc5cccc(F)c5)cc4[C@@H]32)c1	-8.9	-11.8
CC(C)NC(=O)N(C)C[C@@H]1OCCCC[C@H](C)Oc2ccc(NS(C)(=O)=O)cc2C(=O)N([C@@H](C)CO)C[C@H]1C	19.0	6.8
O=C(C1CCCCC1)N1C[C@@H]2[C@H](c3ccccc31)[C@H](CO)N2C(=O)Cc1ccccn1	-18.1	1.3
O=C(C[C@@H]1C=C[C@@H](NC(=O)Cc2ccccn2)[C@H](CO)O1)NCCc1ccncc1	0.9	8.5

This part in full (from the top)
SMILES	Vaccinia inh	Vaccinia inh Venus
Cc1cccc(S(=O)(=O)N2CC[C@@H]3[C@H](CO)Nc4ccc(C#Cc5cccc(F)c5)cc4[C@@H]32)c1	-8.9	-11.8
CC(C)NC(=O)N(C)C[C@@H]1OCCCC[C@H](C)Oc2ccc(NS(C)(=O)=O)cc2C(=O)N([C@@H](C)CO)C[C@H]1C	19.0	6.8
O=C(C1CCCCC1)N1C[C@@H]2[C@H](c3ccccc31)[C@H](CO)N2C(=O)Cc1ccccn1	-18.1	1.3
O=C(C[C@@H]1C=C[C@@H](NC(=O)Cc2ccccn2)[C@H](CO)O1)NCCc1ccncc1	0.9	8.5
C[C@@H]1CN([C@@H](C)CO)S(=O)(=O)c2ccc(C#Cc3ccncc3)cc2O[C@@H]1CN(C)C	2.9	-7.6
C[C@H]1CN([C@@H](C)CO)C(=O)c2cccc(NC(=O)c3nc4ccccc4s3)c2O[C@@H]1CN(C)Cc1ccc(C(F)(F)F)cc1	?	/
CCCC#Cc1ccc2c(c1)O[C@H](CN(C)S(C)(=O)=O)[C@@H](C)CN([C@H](C)CO)S2(=O)=O	-8.1	-19.3
COc1cccc(-c2cnc3c(c2)C(=O)N([C@H](C)CO)C[C@@H](C)[C@H](CN(C)C(=O)CC2CC2)O3)c1	15.6	5.8
O=C(CC(F)(F)F)N1C[C@@H]2[C@H](c3ccccc31)[C@@H](CO)N2C(=O)C1CCOCC1	13.1	13.7
C[C@H](NC(=O)C[C@@H]1C=C[C@@H](NC(=O)Cc2ccccn2)[C@H](CO)O1)c1ccccc1	11.5	1.4
C[C@H]1CN([C@@H](C)CO)C(=O)c2ccccc2-c2ccccc2CO[C@H]1CN(C)C(=O)Cc1ccccc1	0.5	-9.1
Cn1cnc(S(=O)(=O)N[C@@H]2C=C[C@H](CC(=O)Nc3ccccc3)O[C@@H]2CO)c1	-9.2	-5.2
O=C(Nc1cc(Cl)cc(Cl)c1)N[C@@H]1CC[C@H](CCNS(=O)(=O)c2cccc(F)c2)O[C@@H]1CO	?	/
COCC(=O)N1CC2(CCN(Cc3ccccc3)CC2)c2c([nH]c3cc(OC)ccc23)[C@@H]1CO	-17.7	-19.0
CCS(=O)(=O)Nc1ccc2c(c1)C(=O)N(C)[C@H]1CC[C@H](CC(=O)NCCOC)O[C@@H]1CO2	3.7	9.1
Cc1noc(C)c1NC(=O)N(C)C[C@H]1Oc2ccc(NC(=O)NC(C)C)cc2CC(=O)N([C@H](C)CO)C[C@H]1C	4.2	-4.3
O=C(O)C[C@@H]1C[C@H]2c3cc(NS(=O)(=O)c4ccccc4)ccc3O[C@H]2[C@H](CO)O1	6.5	18.6
CCC(=O)N(C)C[C@@H]1Oc2cc(-c3cccc(OC)c3)ccc2S(=O)(=O)N([C@H](C)CO)C[C@@H]1C	11.8	-8.2
N#C[C@@H]1[C@H](c2ccc(-c3cncnc3)cc2)[C@@H](CO)N1C(=O)CN1CCOCC1	13.8	3.4
C[C@@H]1CN([C@@H](C)CO)S(=O)(=O)c2ccc(-c3ccc(C(=O)N(C)C)cc3)cc2O[C@H]1CN(C)Cc1ccccc1C(=O)O	32.4	26.1
COc1ccc(NC(=O)Nc2ccc3c(c2)C(=O)N([C@@H](C)CO)C[C@@H](C)[C@H](CN(C)S(=O)(=O)c2cccs2)OCCCC[C@H](C)O3)cc1	1.9	9.7
CN(C)C(=O)c1cccc(-c2ccc([C@H]3[C@@H](CO)N4CCCCN(S(C)(=O)=O)C[C@H]34)cc2)c1	14.5	9.8
Cc1noc(C)c1S(=O)(=O)Nc1ccc2c(c1)CC(=O)N([C@@H](C)CO)C[C@H](C)[C@H](CN(C)Cc1ccc(C(F)(F)F)cc1)O2	-34.2	-30.3
C[C@H]1CN([C@@H](C)CO)C(=O)c2cccc(NC(=O)c3nc4ccccc4s3)c2O[C@@H]1CN(C)Cc1ccc(Cl)c(Cl)c1	-32.6	-38.1
C[C@@H]1CN([C@@H](C)CO)C(=O)c2cc(-c3ccc(C#N)cc3)cnc2O[C@H]1CN(C)CC1CCCC1	-17.6	-6.7
CCCN(C)C[C@@H]1OCCCC[C@H](C)Oc2ccc(NS(=O)(=O)c3ccc(C)cc3)cc2C(=O)N([C@H](C)CO)C[C@@H]1C	?	/
C[C@H](CO)N1C[C@H](C)[C@@H](CN(C)C(=O)Cc2ccncc2)Oc2cc(C#CC3CC3)ccc2S1(=O)=O	-5.2	-3.5
CN(C)CC(=O)Nc1ccc2c(c1)[C@@H]1C[C@@H](CC(=O)NCc3cccc(F)c3)O[C@@H](CO)[C@@H]1O2	17.9	7.2
CCCC#Cc1cnc2c(c1)C(=O)N([C@H](C)CO)C[C@@H](C)[C@@H](CN(C)C(=O)Nc1ccc(OC)cc1)O2	6.8	7.6
COCC(=O)Nc1ccc2c(c1)C(=O)N(C)[C@H]1CC[C@H](CC(=O)NCc3ccccc3F)O[C@H]1CO2	-3.6	-1.3
C/C=C/c1ccc([C@H]2[C@H]3CN(C(=O)Cc4cccnc4)CCCCN3[C@H]2CO)cc1	13.5	8.5
COc1cccc(S(=O)(=O)N2CCCCN3[C@H](CO)[C@@H](c4ccc(-c5ccccc5)cc4)[C@H]3C2)c1	?	/
O=C(Nc1ccccc1F)N1C[C@@H]2[C@H](c3ccccc31)[C@@H](CO)N2C(=O)C1CCCCC1	10.0	7.6
O=C(C[C@H]1CC[C@@H](NC(=O)c2ccc(F)cc2)[C@H](CO)O1)NCCc1ccccc1	-3.7	-5.7
CO[C@@H](C(=O)N(C)C[C@H]1OCc2ccccc2-c2c(n(C)c3ccccc23)C(=O)N([C@H](C)CO)C[C@H]1C)c1ccccc1	-19.5	-21.3
C[C@@H]1CN([C@H](C)CO)C(=O)c2cc(NC(=O)CCC(F)(F)F)ccc2O[C@@H]1CN(C)Cc1ccc(Oc2ccccc2)cc1	?	/
C[C@H](CO)N1C[C@H](C)[C@H](CN(C)C(=O)Nc2ccc(C(F)(F)F)cc2)OCc2cnnn2CCCC1=O	10.7	10.8
Cc1noc(C)c1S(=O)(=O)Nc1ccc2c(c1)C(=O)N([C@@H](C)CO)C[C@H](C)[C@@H](CN(C)S(=O)(=O)c1c(C)noc1C)OCCCC[C@H](C)O2	-8.4	-12.1
CCC(=O)N1C[C@@H](C)[C@@H](OC)CN(C)C(=O)c2cc(NC(=O)c3ccc(F)cc3)ccc2OC[C@@H]1C	7.1	0.2
C[C@H]1CN([C@@H](C)CO)C(=O)c2cccc(NS(=O)(=O)c3ccccc3)c2O[C@H]1CN(C)CC1CCCCC1	3.1	6.5
C[C@H](CO)N1C[C@H](C)[C@H](CN(C)S(C)(=O)=O)Oc2cc(C#CC3CC3)ccc2S1(=O)=O	-11.5	-5.1
C=CCSC1=N[C@@]2(COCc3ccc(OC)cc3)Oc3ccccc3[C@H]([C@H]2CO[Si](C)(C)C(C)(C)C)N1C(=O)c1ccccc1	10.6	2.6
CS(=O)(=O)Nc1ccc2c(c1)[C@H]1C[C@@H](CC(=O)NCc3ccccc3F)O[C@H](CO)[C@H]1O2	9.5	16.4
CC(C)NC(=O)N(C)C[C@H]1Oc2cc(-c3cccnc3)ccc2S(=O)(=O)N([C@@H](C)CO)C[C@H]1C	15.6	1.6
COc1ccc(NC(=O)N(C)C[C@H]2OCCCC[C@H](C)Oc3ccc(N(C)C)cc3C(=O)N([C@H](C)CO)C[C@H]2C)cc1	0.1	-3.4
O=C(NCC[C@@H]1CC[C@@H](NC(=O)C2CCCCC2)[C@H](CO)O1)c1ccc(F)cc1	-6.1	2.0
CN1CCN(C(=O)C[C@@H]2CC[C@@H]3[C@H](COC[C@H](O)CN3C(=O)c3ccc(F)cc3)O2)CC1	9.0	8.7
CO[C@@H]1CN(C)C(=O)c2cc(NC(=O)C3CCOCC3)ccc2OC[C@H](C)N(CC2CC2)C[C@@H]1C	17.8	8.4
O=C(c1ccc(F)cc1)N1CCCCN2[C@H](C1)[C@H](c1ccc(-c3ccc(F)cc3)cc1)[C@@H]2CO	?	/
COc1ccc(S(=O)(=O)Nc2ccc3c(c2)C(=O)N([C@@H](C)CO)C[C@H](C)[C@@H](CN(C)C(=O)Nc2c(C)noc2C)OCCCC[C@@H](C)O3)cc1	14.3	8.6
CC(C)NC(=O)N(C)C[C@H]1OCCCC[C@@H](C)Oc2ccc(N(C)C)cc2C(=O)N([C@@H](C)CO)C[C@H]1C	6.5	-4.1
C[C@@H]1CN([C@H](C)CO)C(=O)CCCn2nncc2CO[C@@H]1CN(C)C(=O)Nc1ccnc(N2CCOCC2)c1	10.0	7.1
COc1ccc(S(=O)(=O)Nc2ccc3c(c2)C(=O)N([C@@H](C)CO)C[C@@H](C)[C@H](CN(C)Cc2ccc(C(=O)Nc4ccccc4N)cc2)O3)cc1	0.3	-2.9
C[C@H](CO)N1C[C@H](C)[C@@H](CN(C)C(=O)c2cccnc2)Oc2cc(C3=CCCC3)ccc2S1(=O)=O	28.8	22.4
COc1ccc(CN2C[C@@H](O)COC[C@H]3O[C@@H](CC(=O)N4CCc5ccccc5C4)CC[C@@H]32)cc1	-12.8	-5.2
CC(C)CC#Cc1cnc2c(c1)C(=O)N([C@H](C)CO)C[C@@H](C)[C@H](CN(C)C(=O)Cc1ccccc1)O2	?	/
C[C@@H]1CN([C@@H](C)CO)C(=O)c2cc(NS(C)(=O)=O)ccc2O[C@H]1CN(C)Cc1ccc(Cl)c(Cl)c1	-25.3	-37.8
CN1C(=O)c2cc(NC(=O)C3CCCC3)ccc2OC[C@@H]2O[C@@H](CC(=O)Nc3ccccc3)CC[C@H]21	-22.1	-11.0
O=C(CCN1CCCCC1)NCC[C@H]1CC[C@@H](NS(=O)(=O)c2cccc(Cl)c2)[C@@H](CO)O1	-1.1	3.9
COc1ccc(CN(C)C[C@@H]2OCCCC[C@H](C)Oc3ccc(NC(=O)CCC(F)(F)F)cc3C(=O)N([C@@H](C)CO)C[C@@H]2C)cc1	-25.7	-19.2

Pulled one by one from the list above:
SMILES	Vaccinia inh	Vaccinia inh Venus
COc1ccc(NC(=O)Nc2ccc3c(c2)C(=O)N([C@@H](C)CO)C[C@@H](C)[C@H](CN(C)S(=O)(=O)c2cccs2)OCCCC[C@H](C)O3)cc1	1.9	9.7
C[C@@H]1CN([C@@H](C)CO)S(=O)(=O)c2ccc(-c3ccc(C(=O)N(C)C)cc3)cc2O[C@H]1CN(C)Cc1ccccc1C(=O)O	32.4	26.1

Other structures follow.
SMILES	Vaccinia inh	Vaccinia inh Venus
C[C@@H]1CN([C@H](C)CO)C(=O)CCCn2cc(nn2)CO[C@H]1CN(C)C(=O)Cc1ccccc1	4.5	1.1
CS(=O)(=O)N1[C@@H](CO)[C@@H](c2ccccc2)C12CN(C(=O)C1CC1)C2	0.7	0.5
C[C@H]1CN([C@@H](C)CO)C(=O)c2cccc(NC(=O)C3CC3)c2O[C@@H]1CN(C)Cc1ccc(C(F)(F)F)cc1	-21.8	-6.5
COc1ccc(S(=O)(=O)Nc2cccc3c2O[C@H](CN(C)S(=O)(=O)c2ccc(F)cc2)[C@@H](C)CN([C@H](C)CO)C3=O)cc1	8.2	5.5
CO[C@@H]1CN(C)C(=O)c2cc(NC(=O)C3CC3)ccc2OC[C@H](C)N(Cc2ccccc2)C[C@H]1C	-20.0	-13.5
COc1ccccc1CN1[C@@H]2c3cccc(=O)n3C[C@@H]2[C@@H](CO)[C@@H]1C(=O)NCc1ccccc1	0.4	-2.0
CC(C)(C)S(=O)N1Cc2cc(C(=O)NCc3ccc4c(c3)OCO4)nc(-c3cccc(-c4cccc(F)c4)c3)c2[C@H]1CCO (stereo partly drawn)	-19.1	-7.3
O=S(=O)(N[C@H]1CC[C@@H](CCn2cc(C3CC3)nn2)O[C@H]1CO)c1ccc(F)cc1	-6.6	-1.4
COc1ccc(NC(=O)Nc2ccc3c(c2)C(=O)N([C@H](C)CO)C[C@H](C)[C@@H](CN(C)CC2CCCCC2)OCCCC[C@H](C)O3)cc1	?	/
O=C(C[C@H]1CC[C@@H]2[C@H](COC[C@@H](O)CN2S(=O)(=O)c2ccccc2)O1)Nc1ccccc1	12.8	8.0
C[C@H]1CN([C@@H](C)CO)C(=O)c2cc(NC(=O)CCCN(C)C)ccc2O[C@H]1CN(C)Cc1ccccc1	9.0	5.8
C[C@H]1CN([C@@H](C)CO)C(=O)c2cc(NC(=O)Cn3cnnn3)ccc2O[C@@H]1CN(C)S(=O)(=O)c1cccs1	30.0	19.8
CCC(=O)N1C[C@H](C)[C@H](OC)CN(C)C(=O)c2ccc(NC(=O)C3CCCCC3)cc2OC[C@H]1C	7.7	4.1
C[C@@H]1CN([C@H](C)CO)C(=O)c2cc(NC(=O)C3CC3)ccc2O[C@@H]1CN(C)S(=O)(=O)c1cccs1	-12.4	-0.8
O=C(NCC[C@@H]1CC[C@@H](NS(=O)(=O)c2ccc(F)cc2)[C@H](CO)O1)c1ccc2c(c1)OCO2	2.8	-3.7
COc1ccc(NC(=O)Nc2ccc3c(c2)CC(=O)N([C@H](C)CO)C[C@H](C)[C@@H](CN(C)Cc2ccc(-c4ccccc4)cc2)O3)cc1	-24.2	-21.6
CC(=O)N(C)C[C@@H]1Oc2ncc(C#Cc3ccncc3)cc2C(=O)N([C@H](C)CO)C[C@@H]1C	25.3	20.7
CCNC(=O)[C@@H]1[C@@H](CO)[C@@H]2Cn3c(ccc(-c4ccccc4)c3=O)[C@@H]2N1Cc1ccccn1	-6.5	-3.5
COc1ccc(CN(C)C[C@@H]2Oc3ccc(NC(=O)CCC(F)(F)F)cc3C(=O)N([C@@H](C)CO)C[C@H]2C)cc1	4.8	0.6

These rows are one share of the data, so the mix of outcomes need not match the whole.
